Screening data: PubChem, National Center for Advancing Translational Sciences (NCATS)
gsp antagonist – antagonizes gsp, the McCune-Albright syndrome mutation; AID 624288; actives 0.4% (n = 340,000); Potency, µM (top dose mostly 76.9 µM), without a hit: at the highest dose activity change, negative = inhibition, hits mostly inhibitors; gsp-mutant cells, cAMP HTRF, 30 min; control for the full effect not named in the record; active = falling curve of any shape with a large fitted effect; inconclusive = falling curve, mostly with a smaller effect; inactive = flat or rising curve; cell line not stated here;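 note: intracellular cAMP measured with PDE inhibitor Ro 20-1724 present during compound exposure; potency is the fitted concentration of half-maximal effect; % is set by controls: 0 for no effect and ±100 for the full control effect; nearly all actives have a fitted effect of over 65% in size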
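HTRF cAMP read-out (cAMP-d2 plus anti-cAMP antibody-K in lysis buffer, 30 min RT). Before lysis, cells are exposed to compounds with […] for 30 min at 37C in DPBS containing Ca/Mg, BSA and Tween 20.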
gsp ag – gsp mutant agonism | AID 624287 | Potency, µM (series often up to 76.9 µM), for inactives: at the highest dose activation (cAMP increase), usual class: activators | actives 0.13% (n = 340,000) | gsp mutant cells, cAMP HTRF, 30 min; control for the full effect not named in the record; active = well fitted activation curve with a large enough effect; inconclusive = small, poorly fitted or top-dose-only effect, or another doubt; inactive = no such curve, though single readings can be large or run the other way; cell line not stated here;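 note: phosphodiesterase inhibitor Ro 20-1724 added with compounds to block cAMP breakdown; potency is the fitted concentration of half-maximal effect; nearly all actives have a fitted effect of over 60% in size; about a fifth of the inactives were tested at one dose only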
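Cells stably selected in G418 were plated at 2000/well, grown 16-24 hr, then given compounds in DMSO with the PDE inhibitor […] (300 uM solution added) for 30 min at 37C; cAMP was read by HTRF.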
TRPV1 potentiator – potentiators of human vanilloid receptor 1 (TRPV1); Q8NER1; TRPV1-expressing cells, Fluo-8 calcium influx, capsaicin EC20 potentiation; host cell line not named in the record; control for the full effect not named in the record; potentiation, % at 8.33 µM; actives 0.02% (n = 320,000); AID 540277; active means potentiation above 80%; inconclusive means 30% to 80%; inactive means below 30%; note: 0% is about no effect
Target sequence (Q8NER1 whole entry, looked up): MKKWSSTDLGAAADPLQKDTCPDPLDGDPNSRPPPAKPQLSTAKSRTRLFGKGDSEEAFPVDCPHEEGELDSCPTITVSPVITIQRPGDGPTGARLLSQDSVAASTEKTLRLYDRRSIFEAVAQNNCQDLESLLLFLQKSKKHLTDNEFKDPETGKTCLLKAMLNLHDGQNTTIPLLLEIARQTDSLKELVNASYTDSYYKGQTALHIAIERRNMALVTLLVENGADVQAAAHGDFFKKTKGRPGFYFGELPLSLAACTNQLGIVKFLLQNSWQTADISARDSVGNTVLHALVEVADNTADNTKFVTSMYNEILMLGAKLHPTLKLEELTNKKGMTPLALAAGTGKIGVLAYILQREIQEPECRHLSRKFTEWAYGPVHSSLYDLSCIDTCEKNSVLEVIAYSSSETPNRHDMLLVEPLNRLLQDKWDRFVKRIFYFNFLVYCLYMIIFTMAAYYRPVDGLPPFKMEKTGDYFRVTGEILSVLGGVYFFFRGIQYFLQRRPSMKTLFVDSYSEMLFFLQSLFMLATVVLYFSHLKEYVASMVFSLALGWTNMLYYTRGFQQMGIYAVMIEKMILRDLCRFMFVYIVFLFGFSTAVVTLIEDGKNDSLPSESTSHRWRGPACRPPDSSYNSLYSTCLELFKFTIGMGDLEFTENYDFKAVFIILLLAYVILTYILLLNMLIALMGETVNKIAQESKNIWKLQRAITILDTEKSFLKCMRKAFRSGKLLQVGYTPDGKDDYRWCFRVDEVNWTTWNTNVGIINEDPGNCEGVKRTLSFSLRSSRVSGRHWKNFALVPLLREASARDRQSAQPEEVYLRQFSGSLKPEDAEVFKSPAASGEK
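Fluo-8 calcium influx in TRPV1-expressing cells, kinetic read (ex 480/em 520 nm). Compound added and read 3 min for agonist activity, followed by capsaicin at EC20 final and 2 min further read for enhancement.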
ClpP mod – qHTS Assay for Activators of ClpP. ATP-dependent Clp protease proteolytic subunit (Bacillus subtilis (strain 168)), P80244. Potency, µM (highest dose often 57.5 µM), inactives show at the highest dose activity change, negative = active. AID 651965, 2013. purified B. subtilis ClpP, FRET peptide cleavage, 20 min. actives 1.9% (n = 340,000); active = well fitted falling curve with a large enough effect; inconclusive = small, poorly fitted or top-dose-only effect; inactive = no such curve, though single readings can be large or run the other way; note: potency is the fitted concentration of half-maximal effect; the source files actives as falling curves though it sought activators and does not explain the sign; nearly all actives have a fitted effect of over 65% in size; many hits overshoot -100%
Target sequence (P80244 whole entry, looked up): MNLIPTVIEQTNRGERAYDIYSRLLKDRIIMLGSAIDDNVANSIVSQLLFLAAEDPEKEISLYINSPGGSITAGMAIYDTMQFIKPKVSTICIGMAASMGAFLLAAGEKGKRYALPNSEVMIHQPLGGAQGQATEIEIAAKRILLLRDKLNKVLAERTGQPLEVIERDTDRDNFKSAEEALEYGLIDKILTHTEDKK
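Buffer: 100 mM Tris/HCl pH8, 100 mM KCl, 0.05% low protease BSA, 2.5% glycerol, 0.01% Tween-20. ClpP 10 microg/mL final; 20 min RT; delta FRET normalized to ADEP and DMSO controls.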
D2 potentiator – potentiates the human D2 dopamine receptor allosterically; actives 0.23% (n = 360,000); DiscoveRx D2 beta-arrestin cells, luminescence, 90 min; 100% = 57 uM dopamine signal; P14416; potentiation, % (test concentration not listed); AID 624464; active = potentiation of 50% or more; inconclusive = 30% to 50%; inactive = 30% or less;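 note: compound concentration not given in the record; tested on top of an EC20 dose of dopamine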
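PathHunter D2 cells, attached overnight at 37 deg C, received compound in DMSO plus dopamine at EC20 (50 nM final) for 90 min at 37 deg C. Beta-arrestin recruitment was read as luminescence after 1 h with detection reagent at ambient temperature.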
Sfp PPTase inh – inhibitors of Bacillus subtilis Sfp phosphopantetheinyl transferase. AID 1490. Biochemical Sfp PPTase activity, qHTS. Potency, µM, for the others: max response, negative = inhibition, usual class: inhibitors. actives 3.5% (n = 310,000); active = well fitted inhibition curve with a large enough effect; inconclusive = small, poorly fitted or top-dose-only effect, or another doubt; inactive = no such curve, though single readings can be large or run the other way;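 note: the enzyme is Sfp with the accession as filed and its product quenches rhodamine fluorescence; potency is the fitted concentration of half-maximal effect; 0% = enzyme reaction without inhibitor and -100% = no enzyme wells; top concentration of the series not given in the record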
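Fluorescence-quenching assay with 15 nM Sfp, 5 uM rhodamine-CoA and 12.5 uM BHQ-2-labelled ybbR peptide in pH 7.6 Hepes/MgCl2 buffer. Enzyme was pre-incubated with compound for 15 min at room temperature. Rate was taken from the 30-min fluorescence change (525/598 nm).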
Menin-MLL FL inh – displaces fluorescein MLL peptide from human menin | Fluorescence polarization, fluorescein-MLL peptide displacement from menin | FP activity change, % at 61.4 µM | 290,000 tested, under 10 active | AID 1766; inconclusive = falling polarisation curve, or a change in total fluorescence; inactive = total fluorescence flat and polarisation flat or rising; no compound was filed as active; the % refers to the polarisation; negative = inhibition;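 note: % of control where 0% means no effect; inhibitors lower the polarisation; unlabelled MLL peptide was the positive control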
* marks the source's active call; other numbers are inactive results; u = inconclusive; x = not tested or not shown; [ ] = remark or other dose. Outcome played no part in choosing rows; about 5.1% have a hit in one of these screens.

SMILES	gsp antagonist	gsp ag	TRPV1 potentiator	ClpP mod	D2 potentiator	Sfp PPTase inh	Menin-MLL FL inh
CCC1=Nc2cc(C(=O)NCC3CCCO3)ccc2Sc2ccc(Br)cc21 (stereo unspecified)	10%	u	-9	-1.5%	-10	-6%	12
CCCCN1CCCCC1C(=O)Nc1c(C)cccc1C (stereo unspecified)	-1%	x	8	1.0%	-11	-4%	-2.5
COc1cccc(C=Nc2ccc3c(c2)CCC3)c1O	10%	10%[15.4 µM]	26	x	-6	18%	2.3
O=C(Nc1ccon1)c1csc2ccccc12	2%	-14%	1	-1.0%	-16	16%	1.6
COc1ccc(C2=NOC(C(=O)Nc3cc(Br)ccc3O)C2)cc1OC (stereo unspecified)	7%	15%	16	-5.1%	1	-7%	4.3
Cn1ccsc1=NC(=O)c1ccccc1OC(F)F	15%	u	-10	-1.4%	3	-1%	x
O=C(Nc1nc(-c2ccc(F)cc2)cs1)C1CCCO1 (stereo unspecified)	-7%	14%[15.4 µM]	-11	-0.2%	-4	1%	7.2
O=C(CSc1n[nH]c(-c2cccs2)n1)N1CCCc2ccccc21	8%	2%	-9	-1.3%	-17	11%	2.3
CCN(CC(=O)Nc1cc(Cl)ccc1C)c1ncnc2sc(C)c(C)c12	-16%	-16%	2	-1.8%	-14	-3%	2.5
Cn1c(SCC(=O)NCc2ccccc2)nc2ccccc21	0%	-7%	-4	-3.0%	-12	7%	2.4
Cc1ccc(S(=O)(=O)N2CCC(N3CCCCCC3)CC2)cc1	-5%	-2%	15	0.1%	-1	4%	-0.9
CN1CCN(C(=O)c2ccc(CS(=O)(=O)c3c(Cl)cccc3Cl)o2)CC1	-3%	-15%	7	1.8%	-4	14%	0.9
COc1cc(/C(C)=N/NC(=O)Cc2c(C)[nH][nH]c2=O)ccc1O	3%	-26%	4	-3.2%	-7	3%	-5.4
C/C=C/c1ccc2c(c1)O[C@@H](CN(C)C(=O)c1ccc(F)cc1)[C@@H](C)CN([C@H](C)CO)S2(=O)=O	x	-132%[inhibitor]	x	0.4%	3	x	x
CSc1nc2ccc(NS(=O)(=O)c3ccc([N+](=O)[O-])cc3)cc2s1	-37%	0%[15.4 µM]	4	x	4	3%	-0.3
O=C(CNC(=O)N1CC(=O)Nc2ccccc21)Nc1ccc(Cl)cc1Cl	x	-14%	x	-0.4%	-9	x	x
COc1ccccc1C(=O)NC(C)c1ccc(-n2ccnc2)cc1 (stereo unspecified)	-3%	-75%[inhibitor]	-6	0.6%	-12	12%	x
COCCNC(=O)Cc1c(C)c2cc3c(cc2oc1=O)OC(C)(C)CC3	6%	-1%[15.4 µM]	4	x	-5	10%	2.8
CC(=O)NC(Cc1c[nH]c2ccccc12)C(=O)NCc1ccco1 (stereo unspecified)	-5%	11%[15.4 µM]	11	x	-4	6%	-4.6
Nc1cccc2c(O)cccc12	-31%	8%[15.4 µM]	x	-0.7%	25	x	x
COc1ccccc1C1=NN(C(=O)c2ccccc2)C(c2ccc(Br)cc2)C1 (stereo unspecified)	-8%	7%	0	-12%	-2	-17%	-3.0
Cc1ccc(Cn2c(C)c3cnn(CC(=O)NC4CCCC4)c(=O)c3c2C)cc1	8%	2%	-49	-6.9%	-6	1%	1.0
CN1CCN(Cc2nc(N)nc(Nc3ccc4c(c3)OCCO4)n2)CC1	5%	-12%	7	1.0%	-9	3%	0.0
COC(=O)c1cccc(N(CC(=O)NCC2CCCO2)C(=O)CCC(=O)Nc2cc(C)on2)c1 (stereo unspecified)	8%	8%[15.4 µM]	2	-4.0%	-8	-5%	-5.6
Cc1cccc(NC(=S)N2CCN(C(=O)c3ccco3)CC2)c1C	-11%	1%	-7	-1.0%	2	9%	-4.8
CCc1nnc(NC(=O)c2nc(S(=O)(=O)Cc3ccccc3)ncc2Cl)s1	u	6%[15.4 µM]	u	x	-5	u	x
CC(Sc1nnc2n1CCCCC2)C(=O)Nc1cccc(S(=O)(=O)N2CCOCC2)c1 (stereo unspecified)	7%	3%[15.4 µM]	1	2.5%	-7	x	x
O=c1oc2ccccc2c(Nc2ccccc2)c1[N+](=O)[O-]	-9%	-33%[inhibitor]	-16	-12%	-17	19%	-6.1
Clc1cccc(Cc2ccc(Cl)nn2)c1	-1%	37%[15.4 µM]	11	x	-8	6%	3.4
CCOc1ccc(NC(=O)CN(C)C(=O)CCc2nc3ccccc3c(=O)[nH]2)cc1OCC	x	-66%[inhibitor]	x	-4.7%	-13	x	x
O=C(NCC1CCCN1S(=O)(=O)c1cccs1)c1ccccc1 (stereo unspecified)	5%	u	-25	-13%	14	x	x
CCOC(=O)CC(S(=O)(=O)c1ccccc1)S(=O)(=O)c1ccccc1	x	-23%	x	-2.7%	-34	x	x
COC(=O)C1=C(C)N(CCCC(=O)O)C(=O)NC1c1ccccc1OS(=O)(=O)c1ccc([N+](=O)[O-])cc1 (stereo unspecified)	8%	x	x	0.3%	4	x	x
Cc1nn(-c2ccc(F)cc2)c(Cl)c1/C=C(\CC(=O)O)c1nc2ccccc2s1	40µM*	26%	1	-11%	14	-7%	2.2
NC(=O)[C@H]1CC2(CC(c3cccc(NC(=O)c4ccccc4)c3)=NO2)CN1C(=O)[C@H]1CCC(=O)N1 (stereo partly specified)	3%	x	0	0.1%	-2	16%	1.5
CCOC(=O)CC1=CC(C)(CC(=O)OCC)C(C#N)(C#N)C(N)=C1C#N (stereo unspecified)	-24%	36%	-17	1.1%	0	16%	2.2
CC[n+]1cc(-c2ccccc2)nc(N2CCOCC2)n1	2%	-4%	-16	0.4%	6	2%	2.0
Cc1cc(C)c2oc(C(=O)N3CCN(C)CC3)cc(=O)c2c1	9%	8%	12	x	1	7%	0.4
CCOC(=O)C1=C(Cn2ccc(C(F)(F)F)n2)NC(=O)NC1c1ccc2c(c1)OCO2 (stereo unspecified)	-7%	-4%	-2	-3.3%	-32	16%	1.7
COc1ccccc1NC(=O)CSc1nnc(CNC(=O)c2cccs2)o1	-1%	7%	u	-1.1%	-7	-4%	x

3 compounds from above, ordered by SMILES length, lowest first:
SMILES	gsp antagonist	gsp ag	TRPV1 potentiator	ClpP mod	D2 potentiator	Sfp PPTase inh	Menin-MLL FL inh
CC[n+]1cc(-c2ccccc2)nc(N2CCOCC2)n1	2%	-4%	-16	0.4%	6	2%	2.0
COc1ccccc1C1=NN(C(=O)c2ccccc2)C(c2ccc(Br)cc2)C1 (stereo unspecified)	-8%	7%	0	-12%	-2	-17%	-3.0
CCOc1ccc(NC(=O)CN(C)C(=O)CCc2nc3ccccc3c(=O)[nH]2)cc1OCC	x	-66%[inhibitor]	x	-4.7%	-13	x	x

Continuation:
SMILES	gsp antagonist	gsp ag	TRPV1 potentiator	ClpP mod	D2 potentiator	Sfp PPTase inh	Menin-MLL FL inh
CSc1nc(C)c(CCOC(=O)c2cccc(C)c2)c(=O)[nH]1	-10%	-1%	x	-3.8%	-3	-5%	-1.7
CC(C)(C)C(=O)Cn1c(=N)n(Cc2ccccc2)c2ccccc21	u	-22%	20	-26%	-9	-10%	1.2
O=C(O)c1cccc(NC(=O)c2ccc(CN3C(=O)c4ccccc4C3=O)cc2)c1	3%	-19%[15.4 µM]	2	-2.4%	-3	10%	-0.2
O=C(CC1C(=O)NCCN1Cc1ccc(-c2ccccc2)cc1)NC1CCC1 (stereo unspecified)	4%	-79%[inhibitor]	8	-24%	-12	u	3.9
Nc1cccc2c1C(=O)N(C(=O)/C=C/c1cccc(F)c1)C2=O	6%	30%	-8	x	-10	-28%	u
CC(=O)NC1C(OC(=O)/C=C/c2ccccc2)OC(COC(C)=O)C(OC(C)=O)C1OC(C)=O (stereo unspecified)	2%	u	21	1.6%	2	1%	x
CCOc1ccccc1OCCOc1cccc(C(F)(F)F)c1	-2%	-48%[inhibitor]	-2	0.9%	1	13%	1.8
Cc1ccccc1-c1nc(C(=O)NCC2CCCO2)cc2c1[nH]c1ccccc12 (stereo unspecified)	u	x	4	4.5%	-26	5%	-5.2
CCOc1ccccc1NC(=O)c1cnc(NS(=O)(=O)c2ccccc2)nc1	-19%	27%	4	x	-4	7%	x
COc1ccc(S(=O)CC(=O)Nc2ccccc2Cl)cc1 (stereo unspecified)	15%	4%[15.4 µM]	u	x	-4	15%	-0.9
N#Cc1c(-c2ccc(Cl)cc2Cl)nc2n(c1=O)CCS2	-1%	0%	-3	-3.7%	5	0%	5.2
CCOc1ccccc1NC(=O)CSc1nc(=O)n(CCCN2CCOCC2)c2c1CCC2	-22%	1%	-3	1.9%	-26	x	x
Cn1c(=O)c2c(nc(CN3CCc4ccccc4C3)n2CCCO)n(C)c1=O	2%	14%[15.4 µM]	-20	x	0	12%	-1.5
CCc1nn(CC(=O)N2CCN(Cc3ccc4c(c3)OCO4)CC2)c(=O)c2cc3occc3n12	-3%	-4%	-21	-1.2%	-17	-3%	2.4
CCOC(CNC(=O)CN1C(=O)COc2ccc(S(=O)(=O)N3CCCC3)cc21)OCC	-6%	-9%	2	0.4%	-3	13%	4.2
COc1cc(C2C(C#N)=C(N)N(c3cccnc3)C3=C2C(=O)CC(C)(C)C3)ccc1O (stereo unspecified)	-12%	-50%[inhibitor]	u	-6.4%	-5	3%	-0.1
COc1cc(CN2CCC(C(=O)N3CCCC(C)C3)CC2)cc(Br)c1O (stereo unspecified)	1%	0%	1	-0.2%	-14	-18%	-0.1
COc1ccc(C(=O)NCc2cn3ccccc3n2)cc1	14%	20%	3	u	-19	11%	1.6
COc1cc(-c2noc(C)c2C(=O)NCc2ccc3c(c2)OCO3)cc(OC)c1OC	-1%	-25%	x	-0.7%	5	x	x
CSc1nc(SCC(=O)NC(c2ccccc2)c2ccccc2)c2c3c(sc2n1)CN(C)CC3	-4%	7%	3	28µM*	-13	-1%	8.3
Cc1noc(C)c1S(=O)(=O)N(C)C[C@H]1OCc2cnnn2CCCC(=O)N([C@@H](C)CO)C[C@H]1C	x	u	x	-2.2%	-3	x	x
Cc1ccccc1C(=O)N1CCN(c2ccc(NC(=O)c3ccccc3[N+](=O)[O-])cc2)CC1	5%	5%	-6	x	-7	17%	0.4
COc1ccccc1C(=O)NCCn1cc(SCC(=O)Nc2cc(C)on2)c2ccccc21	-12%	1%	u	-3.0%	3	-15%	0.2
